Bioassay records as filed in PubChem BioAssay.
Cruzain noTriton – inhibitors of Trypanosoma cruzi cruzain without detergent | Potency, µM, without a hit: max response, negative = inhibition, actives largely listed as inhibitors | purified cruzain, Z-FR-AMC fluorescence, no detergent | 200,000 compounds, 2.3% hits | P25779; active = well fitted curve in the direction sought with a large enough effect; inconclusive = small, poorly fitted or top-dose-only effect, or another doubt; inactive = no such curve, though single readings can be large; an effect the other way counts as inactive or inconclusive;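 note: plate controls were enzyme without inhibitor for no effect and buffer without enzyme for full effect; nearly all actives have a fitted effect of over 40% in size; top concentration of the series not given in the record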
Target sequence (P25779 123-467 limits assumed): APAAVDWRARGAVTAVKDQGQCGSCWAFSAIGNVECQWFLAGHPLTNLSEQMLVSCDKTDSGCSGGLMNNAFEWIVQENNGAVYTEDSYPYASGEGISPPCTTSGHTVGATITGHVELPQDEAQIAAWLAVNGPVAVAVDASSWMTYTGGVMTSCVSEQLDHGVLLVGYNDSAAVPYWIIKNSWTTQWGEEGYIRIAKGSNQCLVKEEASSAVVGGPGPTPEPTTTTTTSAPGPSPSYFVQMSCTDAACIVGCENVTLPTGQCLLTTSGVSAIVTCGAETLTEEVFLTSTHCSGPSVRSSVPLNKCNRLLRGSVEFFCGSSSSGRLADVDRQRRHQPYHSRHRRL
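Purified cruzain at 1.5 nM, pre-incubated 15 min with compound at room temperature in 100 mM sodium acetate pH 5.5, 5 mM DTT, 0.00005% Triton X-100. Reaction started with 2 uM Z-FR-AMC; AMC fluorescence increase over 60 s gives rate.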
NS1 inh – influenza NS1 inhibition; AID 2326; S. cerevisiae slowed by influenza A NS1, growth recovery by OD600; Potency, µM (top dose mostly 46.1 µM), without a hit: at the top dose activity, positive = more growth; 270,000 compounds, 0.4% hits; note: actives are rising curves; nearly all actives have a fitted effect of over 50% in size
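S. cerevisiae expressing influenza A NS1, grown in glucose, washed, then diluted 1:100 into pH 6.0 -URA galactose medium with 23 nl compound. Growth recovery read as OD600; NS1-free strain serves as control.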
RE007 growth inh – less growth of the S. pombe RE007 Vpr strain; S. pombe RE007 Vpr strain, BacTiter-Glo ATP luminescence, 24 h; control for the full effect not named in the record; Potency, µM (titrated, usually from 92.2 µM), for the others: top-dose activity change, negative = less growth; 360,000 compounds, 0.21% hits; AID 651644; active = well fitted falling curve with a large enough effect; inconclusive = small, poorly fitted or top-dose-only effect; inactive = no such curve, though single readings can be large or run the other way;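 note: % is set by controls: 0 for no effect and ±100 for the full control effect; nearly all actives have a fitted effect of over 50% in size; the assay follows cell death caused by Vpr and the record does not say whether a fall means rescue or toxicity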
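Fission yeast strain RE007, carrying one chromosomally integrated HIV-1 vpr copy, was seeded at OD 0.01 in PMG+AL medium with 23 nL pinned compound. After 24 h at 30 °C and 99% humidity, viability was read by BacTiter-Glo luminescence.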
Lassa entry inh – Lassa virus entry inhibition | Lassa virus pseudotype entry inhibition, cell reporter; control for the full effect not named in the record | Potency, µM (titrated, usually from 37.9 µM), for the others: at the highest dose activity change, negative = inhibition, usual class: inhibitors | 300,000 compounds, 1.2% hits | AID 540256; active means well fitted inhibition curve with a large enough effect; inconclusive means small, poorly fitted or top-dose-only effect, or effect the other way; inactive means flat fitted curve, though single readings scatter; tested in HEK293 cells; note: % is set by controls: 0 for no effect and ±100 for the full control effect; nearly all actives have a fitted effect of over 50% in size; luciferase read-out
MARV entry inh – Marburg virus entry inhibition; Marburg virus pseudotyped entry inhibition, cell reporter; control for the full effect not named in the record; about a third of the inactives were read at about 46 µM; Potency, µM (top dose mostly 37.8 µM), without a hit: at the top dose activity change, negative = inhibition, actives largely listed as inhibitors; 300,000 compounds, 1.8% hits; active = well fitted inhibition curve with a large enough effect; inconclusive = small, poorly fitted or top-dose-only effect, or effect the other way; inactive = flat fitted curve, though single readings scatter; tested in HEK293 cells; about a fifth of its hits are not listed in these tables; note: % is set by controls: 0 for no effect and ±100 for the full control effect; luciferase read-out
2A StopGo – lowers the luciferase signal of an FMDV 2A StopGo reporter | human cells with a luciferase reporter of 2A StopGo recoding; control for the full effect not named in the record | Potency, µM (doses to about 57.9 µM), for inactives: top-dose signal change, negative = less light | 410,000 compounds, 1.2% hits; active = well fitted falling curve with a large enough effect; inconclusive = small, poorly fitted or top-dose-only effect; inactive = no such curve, though single readings can be large or run the other way; tested in HEK293T cells; note: % is set by controls: 0 for no effect and ±100 for the full control effect; nearly all actives have a fitted effect of over 45% in size; luciferase light after 4 h
SARS PLP yeast – blocks SARS-CoV papain-like protease in a yeast assay | S. cerevisiae expressing SARS-CoV PLpro, growth rescue; control for the full effect not named in the record | Potency, µM (series often up to 32.9 µM), for the others: at the top dose activity, positive = growth rescue | 330,000 compounds, 0.19% hits | AID 485353; note: 0% is about no effect; nearly all actives have a fitted effect of over 55% in size; growth read by luminescence after 48 h
Cruzain Triton – cruzain (T. cruzi) inhibition with detergent. P25779. purified cruzain, Z-FR-AMC fluorescence, 0.01% Triton. Potency, µM, for inactives: max response, negative = inhibition, hits mostly inhibitors. 200,000 compounds, 0.43% hits. AID 1478; active = well fitted curve in the direction sought with a large enough effect; inconclusive = small, poorly fitted or top-dose-only effect, or another doubt; inactive = no such curve, though single readings can be large; an effect the other way counts as inactive or inconclusive;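 note: plate controls were neutral wells for no effect and buffer without enzyme for full effect; nearly all actives have a fitted effect of over 40% in size; top concentration of the series not given in the record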
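Cysteine protease activity tested under reducing, mildly acidic conditions (100 mM sodium acetate pH 5.5, 5 mM DTT) plus 0.01% Triton X-100. Cruzain 1.5 nM; substrate Z-FR-AMC 2 uM; 15 min compound preincubation at room temperature.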
An asterisk follows results filed as active; ? = inconclusive; . = no result given; & = joins results of further samples; [ ] = remark or other dose. Unless noted, calls come from the whole dose curve; as a rule, active means well fitted rising curve with a large enough effect; inconclusive means small, poorly fitted or top-dose-only effect; inactive means no such curve, though single readings can be large or run the other way. Potency is the fitted concentration of half-maximal effect.

structure | Cruzain noTriton | NS1 inh | RE007 growth inh | Lassa entry inh | MARV entry inh | 2A StopGo | SARS PLP yeast | Cruzain Triton
COc1ccc(/C=C(/NC(=O)c2ccccc2)C(=O)N2CCCC2)cc1 | . | 3.0% | 86.2% | -8.7%[46.1 µM] | -6.7%[46.1 µM] | 20.1% | -1.3% | .
NC(=O)C1(NC(=O)[C@@H]2CC3(CC(c4cccc(NC(=O)[C@@H]5CCC(=O)N5)c4)=NO3)CN2C(=O)Cc2ccc(C(F)(F)F)cc2)CC1 (stereo not given in full) | ? | -1.4% | 0.3% | . | . | -8.6% | -6.6% | 2.1%
COc1cccc2cc(C(=O)Nc3ccccc3Cl)/c(=N/NS(=O)(=O)c3ccccc3)oc12 | . | -3.6% | -6.6% | . | . | 11.3% | -2.6% | .
COc1ccc(/C=C/C(=O)NCC(=O)N/N=C/c2cccnc2)cc1 | . | . | 4.1% | 1.1% | 1.8%[46.1 µM] | 2.5% | 1.0% | .
O=C(O)c1cc(S(=O)(=O)N2CCCC2)ccc1Br | 3.6% | -5.5% | 3.3% | 4.2% | 1.6% | -18.9% | 4.2% | -1.2%
CC(C)CN(C(=O)COC(=O)c1cc2ccccc2oc1=O)C1CCS(=O)(=O)C1 (stereo not given) | -5.5% | -3.3% | . | . | -2.3% | . | -1.4% | -1.9%
Cc1ccc(OCc2cc(C(=O)NCC(C)(C)N3CCOCC3)no2)cc1C | . | -28.9% | -18.9% | ? | -24.0%[46.1 µM] | 20.0% | -1.5% | .
O=C(c1ccc2ccccc2c1)N1CCN(c2ccccc2)CC1 | -10.1% | -65.3% | -17.1% | ? | 9.1% | -9.3% | . | -7.3%
O=C1c2ccccc2C(=O)N1C1CCCCC1 | . | 25.2% | 3.3% | 13.2% | -0.8% | 1.2% | 14.2% | .
CC(C)CCNc1nc(N)c([N+](=O)[O-])c(NCC2CCCO2)n1 (stereo not given) | -9.9% | -25.3% | 8.9% | 6.0% | -18.3% | 0.0% | -1.4% | -11.9%
CC(C)Sc1ncnc2c1oc1ccccc12 | 16.8% | -15.3% | -12.7% | 11.3% | 18.2% | 34.9%[activator] | -8.4% | -3.8%
CC1CN(C2CCN(C(=O)c3ccccc3Cl)CC2)CC(C)O1 (stereo not given) | 2.3% | 6.4% | 2.9% | 5.8% | -18.9%[46.1 µM] | -17.9% | 0.3% | -1.6%
O=C(/C=C/c1cccc([N+](=O)[O-])c1)NCCSCc1ccccc1Cl | 1.5% | -46.4% | 21.4% | 0.1% | 0.9% | -21.5% | -40.9% | -3.1%
COCCCNC(=O)CSc1nc2ccccc2c(=O)n1CCC(=O)NCCc1ccc(OC)c(OC)c1 | . | . | 0.6% | 4.4%[46.1 µM] | 25.0%[46.1 µM] | -1.9% | -3.3% | .
O=C1N=C(N2CCCC2C(=O)O)S/C1=C\c1ccco1 (stereo not given) | . | -1.5% | 23.1% | 7.4% | -7.5%[46.1 µM] | -1.2% | -3.2% | .
O=C(CCSCc1cccc(Cl)c1)NCc1ccc(F)cc1Cl | 13.7% | . | . | 9.8%[46.1 µM] | . | -2.0% | . | -0.6%
CCN(CC)c1ccc(C=C2C(=O)OC(C)(C(C)(C)C)OC2=O)cc1 (stereo not given) | 7.4% | 35.3% | 13.4% | -11.9% | 3.6%[46.1 µM] | 14.6% | 0.7% | -0.9%
COC(=O)c1ccc(CNC(=O)c2coc3ccccc3c2=O)cc1 | . | . | 0.2% | -3.3% | -19.1% | -3.9% | 2.0% | .
C[C@H](NC(=O)N1CCn2c1nc1ccccc12)C(=O)NCc1ccc2c(c1)OCO2 | . | -14.6% | 4.9% | . | . | -10.6% | 0.5% | .
CN(C)c1ccc(C(C#N)c2ccc(Cl)cc2)nn1 (stereo not given) | . | . | -7.6% | 5.8%[46.1 µM] | -0.4%[46.1 µM] | 0.0% | -1.2% | .
COc1ccccc1N1CCN(C(c2cccs2)C(C)NC(=O)c2ccco2)CC1 (stereo not given) | . | 1.0% | 2.5% | . | . | ? | 0.9% | .
C=CCOc1ccccc1CNCc1ccc(F)cc1 | . | -7.5% | -18.5% | . | . | -4.1% | -0.1% | .
Cc1ccccc1-c1nc2ccc(Cl)cc2c(=O)n1O | . | -73.9% | -17.4% | . | . | -16.1% | -5.3% | .
COc1ccc(C(=O)NCc2nnc(SCC(=O)N3CCc4ccccc43)n2CCc2ccccc2)cc1 | ? | 2.4% | 12.8% | -27.7% | ? | -22.0% | 29.3% | -4.0%
CCn1c(CSCc2ccc(F)cc2)nnc1SCC(=O)NCc1ccccc1 | -7.9% | 3.0% | -10.4% | -11.6% | -23.8% | -29.1% | 1.6% | 4.7%
C=CCNC(=O)CCCOc1cccc(C)c1 | 6.9% | 6.3% | -13.5% | -0.1% | 1.8% | 6.6% | 7.3% | 2.6%
O=C(NC(=S)Nc1ccc(N2CCOCC2)c(Cl)c1)c1cccs1 | . | 5.8% | 1.7% | 3.5%[46.1 µM] | ? | 1.8% | -0.6% | .
CC(C)(C)OC(=O)NCCCC[C@H](NC(=O)c1nc[nH]c1C(=O)N1CCN(c2ccccc2)CC1)C(=O)OC(C)(C)C | . | -2.0% | 7.0% | . | . | -17.7% | 1.2% | .
N#CCn1c(CN2CCCC2)nc2ccccc2c1=O | . | -3.6% | -8.5% | -11.1%[46.1 µM] | -0.6%[46.1 µM] | 9.8% | 3.2% | .
Cc1cccc(C(CC(=O)O)NC(=O)C(F)(F)F)c1 (stereo not given) | . | . | -9.9% | 12.9% | 21.0%[46.1 µM] | -6.1% | -0.1% | .
Cc1nc(NCc2cccnc2)c2c3c(sc2n1)CCCC3 | . | -36.9% | -8.1% | -24.8%[46.1 µM] | ? | -14.8% | -2.0% | .
Cc1ccc(OCCCCn2nnc3sc4c(c3c2=O)CCCC4)cc1 | -4.0% | . | . | -18.2%[46.1 µM] | 0.1%[46.1 µM] | -18.0% | . | -1.7%
COc1ccc(-c2cc(C(F)(F)F)n3nc(C(=O)NCc4ccco4)cc3n2)cc1 | ? | -9.7% | -9.1% | -22.4% | -1.3% | . | 4.8% | -9.5%
CCOc1cc2[nH]c(=S)n(C3CC3)c(=O)c2cc1OCC | . | . | -7.2% | 11.2%[46.1 µM] | ? | -2.4% | -0.1% | .
Cc1cc(N2CCOCC2)nc2ccc(NC(=O)CCC(=O)N3CCCCC3)cc12 | -2.0% | -3.5% | -15.3% | 29.0% | -33.5% | 43.0%[activator] | 0.0% | 4.3%
CSc1ccc(C=NNc2ccc(S(=O)(=O)Nc3ccccc3C(=O)O)cc2[N+](=O)[O-])cc1 | . | . | 4.4% | ? | -1.1% | 0.1% | 1.3% | .
CC(C)C(=O)Nc1nnc(SCC(=O)N2c3ccccc3CC2C)s1 (stereo not given) | 31.6µM* | -5.2% | 4.2% | 3.2% | 6.8% | 3.1% | -0.1% | 10µM*
CCOC(=O)c1c(-c2ccccc2)oc2ccc(NS(=O)(=O)c3cc(C)c(C)cc3C)cc12 | 7.94µM* | . | . | -0.6%[46.1 µM] | ? | 66.3%[activator] | . | -2.8%
O=C(COc1ccccc1Br)NC1CC1 | . | 8.8% | -16.4% | . | . | 28.7% | 1.6% | .
CCOC(=O)C1C(=O)C=C(c2ccc(C)cc2)CC1c1ccc([N+](=O)[O-])cc1 (stereo not given) | -3.6% | 4.2% | . | -26.0% | ? | -23.3% | -27.2% | -7.2%
Brc1ccc(OCc2ccccc2)c(CNCC2CCCO2)c1 (stereo not given) | . | 0.1% | -0.9% | 11.8% | ? | -16.1% | -0.1% | .
Cc1nn(-c2cc(N3CCCC3)ccc2[N+](=O)[O-])c(=O)c2ccccc12 | -5.8% | 16.2% | 13.8% | ? | -15.9% | 15.1% | 5.8% | -14.4%
CCN(c1ccccc1)S(=O)(=O)c1ccc(NC(=O)c2ccco2)cc1 | . | -9.3% | 0.7% | ? | ? | ? | -0.2% | .
COc1cccc(CC2(CO)CCCN(Cc3cn(C)c4ccccc34)C2)c1 (stereo not given) | . | 3.1% | -12.0% | . | . | -20.9% | 0.5% | .
CC(C)=CCCC(C)CCO (stereo not given) | -2.4%&-2.7% | . | -8.0% | . | . | -15.0% | 2.4% | -0.8%&0.6%
O=C(C(=O)N1CCOCC1)c1cn(Cc2ccccc2F)c2ccccc12 | . | -1.8% | 1.1% | -9.9%[46.1 µM] | ? | 37.3%[activator] | -2.6% | .
Cc1ccc(-n2nc(C(=O)NCc3ccc(F)cc3Cl)c3c4ccccc4n(C)c3c2=O)cc1 | 0.7% | . | . | -7.6%[46.1 µM] | -2.0%[46.1 µM] | ? | . | -1.0%
CCC(Oc1ccccc1)C(=O)Nc1ccc(O)c(-c2nc3cc(C)ccc3o2)c1 (stereo not given) | -3.8% | . | . | -3.4%[46.1 µM] | 9.9%[46.1 µM] | 0.2% | . | -1.0%
CCc1c(C)sc2nc(C(C)C)nc(SCC(=O)N3CCc4ccccc4C3)c12 | 7.9% | 2.1% | -11.6% | 20.6µM* | ? | . | 5.2% | 2.0%
Cc1nc(NC(=O)COC(=O)c2ccc(S(=O)(=O)N3CCc4ccccc4C3)cc2)c(Cl)cc1Cl | . | 2.3% | -6.7% | 6.5% | 8.8%[46.1 µM] | -4.8% | 1.7% | .
CCOc1ccc(Nc2nn(-c3ccc(OC(F)(F)F)cc3)nc2C(C)=O)cc1 | -3.0% | . | . | 15.2%[46.1 µM] | 9.8%[46.1 µM] | -10.0% | . | -0.7%
